CtBP-E1A inh = CtBP/E1A binding inhibition; AlphaScreen GST-E1A/His-CtBP binding, 1536-well; stronger effect = lower value; control for the full effect not named in the record; activity change, % (test concentration not listed); 340,000 tested, 0.49% active; in the data active means activity change below about -65%; inconclusive means about -30% to -65%; inactive means above about -30%; further: on the % scale 0 is the no-effect control and ±100 the full control effect; compound concentration not given in the record
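Homogeneous bead-based format: GST-tagged E1A captured on glutathione donor beads, His-tagged CtBP on nickel acceptor beads; compounds precede bead addition by 2 h at 37 °C.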
gsp antagonist = antagonizes gsp, the McCune-Albright syndrome mutation; gsp-mutant cells, cAMP HTRF, 30 min; control for the full effect not named in the record; Potency, µM (series often up to 76.9 µM), for the others: top-dose activity change, negative = inhibition, usual class: inhibitors; 340,000 tested, 0.4% active; AID 624288; active = falling curve of any shape with a large fitted effect; inconclusive = falling curve, mostly with a smaller effect; inactive = flat or rising curve; cell line not stated here;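 further: intracellular cAMP measured with PDE inhibitor Ro 20-1724 present during compound exposure; potency means the concentration at half of the fitted maximal effect; on the % scale 0 is the no-effect control and ±100 the full control effect; nearly all actives have a fitted effect of over 65% in size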
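HTRF cAMP measurement after 30 min RT detection following 30 min, 37C compound treatment alongside […] (added as 300 uM solution) in G418-selected cells seeded at 2000/well and grown 16–24 h.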
Menin MLL FP FL = inhibitors of human menin-MLL interaction, wild-type MLL peptide | Fluorescence polarization, fluorescein-MLL peptide displacement from menin | FP activity change, % at 61.4 µM | 290,000 tested, under 10 active; inconclusive = falling polarisation curve, or a change in total fluorescence; inactive = total fluorescence flat and polarisation flat or rising; no compound was filed as active; the % refers to the polarisation; negative = inhibition;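 further: % of control where 0% means no effect; inhibitors lower the polarisation; unlabelled MLL peptide was the positive control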
ClpP mod = qHTS Assay for Activators of ClpP; AID 651965, 2013; 340,000 tested, 1.9% active; ATP-dependent Clp protease proteolytic subunit (Bacillus subtilis (strain 168)), P80244; Potency, µM (highest dose often 57.5 µM), without a hit: top-dose activity change, negative = active; purified B. subtilis ClpP, FRET peptide cleavage, 20 min; active = well fitted falling curve with a large enough effect; inconclusive = small, poorly fitted or top-dose-only effect; inactive = no such curve, though single readings can be large or run the other way; further: potency means the concentration at half of the fitted maximal effect; the source files actives as falling curves though it sought activators and does not explain the sign; nearly all actives have a fitted effect of over 65% in size; many hits overshoot -100%
Target sequence (P80244 whole entry, looked up): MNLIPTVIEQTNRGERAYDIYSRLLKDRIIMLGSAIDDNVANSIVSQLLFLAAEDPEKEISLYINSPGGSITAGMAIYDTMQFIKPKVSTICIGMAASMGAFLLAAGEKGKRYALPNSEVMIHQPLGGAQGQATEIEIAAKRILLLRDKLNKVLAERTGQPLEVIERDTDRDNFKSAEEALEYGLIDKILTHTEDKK
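Purified B. subtilis ClpP, 10 microg/mL final in Tris/HCl pH8 with KCl, BSA, glycerol and Tween-20, cleaved an Abz/nitrotyrosine-quenched decapeptide. Fluorescence (ex 320, em 430) was read at 0 and 20 min at room temperature. Delta was normalized to 5.8 microM ADEP and DMSO/no-enzyme controls.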
Sfp inh = Sfp phosphopantetheinyl transferase inhibition. Q9F4F7. Biochemical Sfp PPTase activity, qHTS. Potency, µM, for the others: max response, negative = inhibition, most hits filed as inhibitors. 310,000 tested, 3.5% active. AID 1490; active means well fitted inhibition curve with a large enough effect; inconclusive means small, poorly fitted or top-dose-only effect, or another doubt; inactive means no such curve, though single readings can be large or run the other way;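 further: the enzyme is Sfp with the accession as filed and its product quenches rhodamine fluorescence; potency means the concentration at half of the fitted maximal effect; 0% = enzyme reaction without inhibitor and -100% = no enzyme wells; top concentration of the series not given in the record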
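Fluorescence-quenching assay with 15 nM Sfp, 5 uM rhodamine-CoA and 12.5 uM BHQ-2-labelled ybbR peptide in pH 7.6 Hepes/MgCl2 buffer. Enzyme was pre-incubated with compound for 15 min at room temperature. Rate was taken from the 30-min fluorescence change (525/598 nm).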
gsp agonist = agonists of gsp mutant (McCune-Albright syndrome) | gsp mutant cells, cAMP HTRF, 30 min; control for the full effect not named in the record | Potency, µM (series often up to 76.9 µM), for the others: at the highest dose activation (cAMP increase), hits mostly activators | 340,000 tested, 0.13% active | AID 624287; active = well fitted activation curve with a large enough effect; inconclusive = small, poorly fitted or top-dose-only effect, or another doubt; inactive = no such curve, though single readings can be large or run the other way; cell line not stated here;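 further: phosphodiesterase inhibitor Ro 20-1724 added with compounds to block cAMP breakdown; potency means the concentration at half of the fitted maximal effect; nearly all actives have a fitted effect of over 60% in size; about a fifth of the inactives were tested at one dose only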
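Cells in DMEM/10% FBS with G418 were pretreated with compounds in DMSO plus […] (300 uM stock) for 30 min at 37C. cAMP was measured by HTRF (cAMP-d2 plus anti-cAMP antibody-K) after 30 min at room temperature.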
TRPV1 potentiator = enhances activation of the human vanilloid receptor TRPV1 | AID 540277 | Q8NER1 | 320,000 tested, 0.02% active | potentiation, % at 8.33 µM | TRPV1-expressing cells, Fluo-8 calcium influx, capsaicin EC20 potentiation; host cell line not named in the record; control for the full effect not named in the record; active means potentiation above 80%; inconclusive means 30% to 80%; inactive means below 30%; further: 0% is about no effect
Target sequence (Q8NER1 whole entry, looked up): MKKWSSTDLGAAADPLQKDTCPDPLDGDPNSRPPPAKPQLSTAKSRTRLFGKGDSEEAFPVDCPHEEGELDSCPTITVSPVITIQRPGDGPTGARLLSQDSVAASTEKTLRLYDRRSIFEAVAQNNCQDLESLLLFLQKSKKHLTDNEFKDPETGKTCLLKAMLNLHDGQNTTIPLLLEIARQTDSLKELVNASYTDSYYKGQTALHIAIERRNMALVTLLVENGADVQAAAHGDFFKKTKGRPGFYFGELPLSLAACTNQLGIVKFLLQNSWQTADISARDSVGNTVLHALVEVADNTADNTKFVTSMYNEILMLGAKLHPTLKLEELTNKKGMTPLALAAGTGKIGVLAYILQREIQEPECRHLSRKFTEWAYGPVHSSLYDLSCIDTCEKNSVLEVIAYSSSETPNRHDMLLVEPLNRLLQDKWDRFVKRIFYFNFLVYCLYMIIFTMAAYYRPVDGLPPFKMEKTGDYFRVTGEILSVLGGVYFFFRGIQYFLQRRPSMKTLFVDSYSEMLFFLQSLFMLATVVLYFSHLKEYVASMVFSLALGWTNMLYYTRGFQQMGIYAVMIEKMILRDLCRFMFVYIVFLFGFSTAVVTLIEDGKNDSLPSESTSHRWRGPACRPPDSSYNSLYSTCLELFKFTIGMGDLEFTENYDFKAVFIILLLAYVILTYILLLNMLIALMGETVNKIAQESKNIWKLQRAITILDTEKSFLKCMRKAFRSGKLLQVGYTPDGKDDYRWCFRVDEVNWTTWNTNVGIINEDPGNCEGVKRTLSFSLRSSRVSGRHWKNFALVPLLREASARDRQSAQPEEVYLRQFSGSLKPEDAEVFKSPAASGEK
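TRPV1-expressing cells were cultured overnight at 35.5C and loaded with Fluo-8 calcium dye for 40 to 90 min at room temperature. After a 10 s baseline, compound was added and calcium influx was read kinetically for 3 min (ex 480/em 520 nm).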
Starred values were filed as active, the others as inactive; ? = inconclusive; . = no result given; & = joins results of further samples; ! = not active in a repeat; [ ] = dose if it differs, or a comment.

structure | gsp antagonist | TRPV1 potentiator | Menin MLL FP FL | CtBP-E1A inh | gsp agonist | ClpP mod | Sfp inh
O=C(/C=C/c1ccc([N+](=O)[O-])cc1)c1ccco1 | 4.3% | 12.1 | -3.9 | 2.7 | 1.4% | 1.4% | 1.5%
CN(CCC#N)C(=O)COC(=O)c1ccc2c(c1)C(=O)N(C1CCCCC1)C2=O | -3.0% | -1.4 | . | 2.8 | ? | -0.6% | 1.4%
O=C(CSc1nnc(-c2ccccc2Cl)o1)Nc1ccc2c(c1)OCCO2 | -30.8% | 9.2 | 1.7 | 1.4 | -4.4% | 0.4% | 11.4%
CCCC(C)NC(=O)C1CCN(S(=O)(=O)c2ccccc2)CC1 (stereo not drawn) | -0.3% | -3.4 | -1.2 | -1.2 | -5.3% | 0.7% | 7.8%
CCOc1cc(N2CCOCC2)c(OCC)cc1NC(=O)Cc1ccccc1 | -4.2% | -13.4 | 1.4 | -18.8 | 0.4% | . | -6.0%
C=CCn1c(CSc2nc3ccccc3s2)nnc1SCC(=O)NCc1ccccc1 | -24.3% | -5.0 | 6.8 | 0.0 | -2.6% | -0.9% | 2.3%
Cc1ccc(C)c(S(=O)(=O)NCc2ccc(C(=O)N3CCOCC3)cc2)c1 | 1.4% | 5.8 | . | 0.0 | 20.9% | -2.5% | 21.6%
COc1ccc(CNc2ccc3cn[nH]c3c2)c(OC)c1OC | -12.2% | -4.9 | 2.2 | -29.9 | -2.3% | ? | 1.3%
Cc1csc2nc3ccccc3c(=O)n12 | 15.4% | 27.4 | -0.3 | -21.3 | -21.2% | 14.1µM* | 0.2%
CCN1C(=O)/C(=C2/Sc3ccccc3N2CCCS(=O)(=O)O)SC1=S | 10.3%&13.2% | 8.0&-14.8 | ? | -23.0&-24.2 | 21.5% | 1.8% | 79.4µM*!
CCOC(=O)c1ccccc1NC(=O)CSc1cccc[n+]1[O-] | 9.6% | 4.8 | -3.3 | 3.2 | 0.9% | -4.0% | -5.2%
CCOc1ccc2ccccc2c1/C=N/NC(=O)c1c(C)cc(C)[nH]c1=O | -11.8% | . | . | 1.6 | 17.2%[15.4 µM] | . | .
C=CCSc1nnc(NC(=O)C2CSC3(C)CCC(=O)N23)s1 (stereo not drawn) | -4.3% | 1.0 | . | -0.4 | -6.8%[15.4 µM] | -0.2% | .
CCC(=O)N(CCc1ccc(S(N)(=O)=O)cc1)C1CC(=O)N(c2ccc(OC)cc2)C1=O (stereo not drawn) | 16.4% | -18.1 | -1.9 | 0.0 | -29.0%[15.4 µM] | . | 3.2%
COc1cc(/C=C2/C(=O)NN(c3ccc(Cl)cc3)C2=O)ccc1OC(=O)c1ccco1 | -1.2% | 6.7 | . | -17.0 | -7.1% | -3.6% | ?
O/N=C\c1cccn1-c1nccs1 | 5.5% | -17.4 | -0.4 | -0.8 | 1.6%[15.4 µM] | ? | 14.1%
COc1ccc(CNC(=O)CNC(=O)c2ccc(C(C)(C)C)cc2)cc1OC | 6.5% | -27.0 | 4.6 | . | 8.3% | -3.0% | 5.0%
CC(=O)N1CCN(C(=O)COC(=O)/C=C/c2ccccc2[N+](=O)[O-])CC1 | 3.3% | . | . | 0.8 | ? | 1.5% | .
COc1cccc(-c2ccc(C#N)c(SCC(=O)NCCc3ccc(Cl)cc3)n2)c1 | -5.7% | -3.6 | 5.2 | 5.8 | ? | 35.5µM* | 1.4%
O=C(CCSc1ccc(Cl)cc1)NC1CCCC1 | 1.2% | 0.1 | -3.0 | . | -24.2% | 1.3% | 9.7%
CCCCCCOC(=O)C1=C(C)NC(=O)NC1c1ccc2c(c1)OCO2 (stereo not drawn) | -11.1% | -1.5 | -2.9 | -1.7 | -89.1%[inhibitor] | -0.7% | 12.8%
CCn1c(C)nc2cc(C(=O)N/N=C/c3ccccc3)ccc21 | -1.9% | 2.6 | 0.1 | -23.0 | 20.1%[15.4 µM] | . | 2.5%
CC1CCCN(C(=O)CCS(=O)(=O)c2ccc3c(c2)n(C)c(=O)c(=O)n3C)C1 (stereo not drawn) | 2.8% | -21.4 | -3.0 | -0.6 | 24.2% | ? | 12.5%
CCOC(=O)C1(CCCc2ccccc2)CCN(C2CCSCC2)CC1 | 0.1% | -3.7 | 0.0 | . | 33.1% | -3.0% | 6.3%
COc1ccc(Br)cc1S(=O)(=O)NCc1ccccc1 | -6.6% | -6.2 | 7.1 | 2.0 | -18.0% | 1.9% | 2.3%
CN=c1scc(C)n1/N=C/c1ccc(O)cc1 | 1.9%[15.4 µM] | -1.8 | -1.8 | -8.8 | -2.9% | -12.1% | -4.8%
O=S(=O)(c1cnc(Cl)c(Cl)c1)N1CCCc2ccccc21 | -32.3% | -28.5 | 2.7 | 12.8 | 6.6% | -0.5% | ?
CCN(c1ccccc1)S(=O)(=O)c1ccc(OC)c(NC(=O)Cc2ccc(F)cc2)c1 | -22.7% | 8.6 | . | 3.1 | -13.5% | -1.7% | .
O=C(O)c1cccc(Nc2nc(-c3ccc([N+](=O)[O-])cc3)nc3ccccc23)c1 | -12.9% | 6.4 | -1.1 | 6.5 | ? | -0.2% | -7.0%
CC(C)C(c1nnnn1Cc1ccco1)N1CCN(C2CCCC2)CC1 (stereo not drawn) | 2.0% | 15.5 | 5.9 | 5.8 | 0.0% | -0.1% | 9.3%
CCCCN(CCCC)C(=O)c1ccccc1NC(=O)CN1C(=O)c2ccccc2C1=O | 5.2% | -6.6 | 3.0 | 3.6 | -0.7% | 0.7% | 7.6%
Cn1c(=O)c2c(c3ccccc31)OC(=O)CC2c1cccnc1 (stereo not drawn) | -3.1% | -4.6 | -1.4 | 0.0 | 21.5% | -14.9% | 13.2%
COc1ccc(N(C)C(=O)CCS(=O)(=O)c2cccc3nonc23)cc1 | -9.6% | 12.0 | 1.8 | 6.7 | 3.3% | -1.6% | 2.4%
Nn1c(Nc2ccccc2)nc2ccccc21 | 3.1% | -16.8 | 1.7 | 2.4 | -2.2% | ? | 13.0%
Cc1cccc2nc(COc3ccc(Cl)c4cccnc34)cn12 | 5.8% | -14.0 | 1.1 | -13.8 | 8.7%[15.4 µM] | . | 4.1%
COc1cccc(CN(C)C[C@@H]2OCc3cnnn3CCCC(=O)N([C@@H](C)CO)C[C@H]2C)c1 | . | . | . | 0.0 | -7.1% | -3.4% | .
CCOC(=O)c1c(C)[nH]c(C(=O)COC(=O)c2ccncc2)c1C | -0.6% | -4.6 | 6.3 | 4.5 | 2.0% | -2.2% | 2.2%
CCN=C1SC(CC(=O)Nc2ccc3c(c2)OCO3)C(=O)N1CC (stereo not drawn) | 11.9% | -10.8 | -2.3 | 0.4 | -7.9%[15.4 µM] | . | -10.4%
Cc1ccc(N(C(=O)c2csnn2)C(C(=O)NC2CCCCC2)c2ccccn2)cc1C (stereo not drawn) | 10.4% | 8.8 | 3.1 | 0.0 | -3.4%[15.4 µM] | 0.4% | 15.5%
CC1CCN(C(=O)C2CCC(CNS(=O)(=O)c3cccc4cccnc34)CC2)CC1 (stereo not drawn) | . | -21.0 | 0.9 | . | . | . | 1.4%
CN1CCCNc2nc3ccccc3nc21 | -1.8% | -5.5 | ? | 4.2 | -16.0% | -10.7% | -10.6%
Clc1ccccc1/C=N/NC1=Nc2cccc3cccc1c23 | -7.2% | -2.7 | . | -11.9 | -8.4% | -1.7% | -1.3%
O=c1[nH]ncn1-c1ccccc1 | 2.8% | 4.9 | 2.0 | 11.3 | 16.3% | . | 18.8%
CN1c2ccc(Cl)cc2C(=O)NC1C1CC=CCC1 (stereo not drawn) | 5.7% | -6.9 | -2.1 | 10.5 | -0.7%[15.4 µM] | . | -1.2%
O=C(Nc1nncs1)Oc1ccccc1 | -1.6% | -15.4 | 0.1 | 11.9 | -4.0% | -0.1% | -8.1%
Cc1ncc([N+](=O)[O-])n1CCOC(=O)c1ccc(Br)cc1 | -1.4% | -12.8 | 1.6 | -4.0 | -0.5%[15.4 µM] | . | 16.8%
CC(C)(C)c1ccc(C(=O)Nc2ccc(S(N)(=O)=O)cc2)cc1 | -5.3% | -2.4 | 1.3 | 2.1 | -3.4%[15.4 µM] | . | 11.8%
CCOC(=O)CCN(C(=S)Nc1ccccc1)C1CCCCC1 | -0.7% | . | . | 0.8 | -33.1%[inhibitor] | . | .
C=CCn1cnc2scc(-c3ccc(CC)cc3)c2c1=O | ? | ? | -1.3 | 1.3 | 1.7% | -2.5% | -10.8%
Cc1cc(C)n2nc(C(=O)OCC(=O)Nc3ccc(C)c(S(=O)(=O)N(C)C)c3)nc2n1 | 1.0% | -4.1 | . | -3.8 | -45.4%[inhibitor] | -2.3% | .
O=C(Oc1ccccc1C(=O)N1CCOCC1)c1ccccc1 | -4.6% | 18.3 | 0.0 | 3.5 | 17.2% | -1.8% | -1.6%
CC(=O)c1ccccc1N(C(=O)Cn1nnc2ccccc21)C(C(=O)NCC1CCCO1)c1ccc(N2CCOCC2)cc1 (stereo not drawn) | -0.5% | 18.5 | 4.0 | . | ? | -0.3% | 8.8%
COc1ccc(C(=O)Nc2nc3cc4c(cc3s2)OCO4)c(OC)c1 | 21.0% | 11.3 | -1.1 | 3.2 | ? | 3.4% | -22.0%
O=C(N/N=C/c1sc2ccccc2c1O)c1ccccc1 | ? | -13.7 | ? | ? | -1.7% | -1.1% | 12.0%
COc1ccc(-c2nc3ccccn3c2CN2CCN(c3ccccc3F)CC2)cc1 | . | -10.1 | 1.9 | -15.7 | 14.4%[15.4 µM] | . | -25.1%
O=C(N/N=C/c1ccc2c(c1)OCO2)c1cc(-c2ccccc2Cl)nc2ccccc12 | 16.8% | ? | 3.5 | -6.7 | ? | 1.0% | -4.0%
O=C(Nc1ccc(Br)cc1)c1cc(-c2ccncc2)nc2ccccc12 | -16.8% | . | . | -5.4 | 13.5% | . | .
CC(=O)c1cccc(NS(=O)(=O)N2CCCCC2)c1 | 8.7% | 1.2 | -0.6 | -2.3 | ? | 0.6% | -11.0%
CCN1CCN(C(=O)/C=C/c2ccc(C(C)C)cc2)CC1 | 4.8% | . | . | -8.7 | -9.6% | . | .
